Assay outcomes (PubChem BioAssay)
miR-21 FLuc: raises the signal of a miR-21 reporter. HeLa miR-21 FLuc reporter, luciferase, 48 h. Potency, µM (titrated, usually from 38.3 µM), without a hit: at the top dose reporter change, positive = more light. 340,000 tested, under 10 active; active = well fitted rising curve with a large enough effect; inconclusive = small, poorly fitted or top-dose-only effect; inactive = no such curve, though single readings can be large or run the other way;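 also: % of control where 0% means no effect; miR-21 action dims this reporter so a rising signal means less miR-21 action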
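Using DMEM plus 10% FBS, HeLa miR-21-FLuc cells are incubated with test compounds (final up to about 40uM) for 48 hours; firefly luciferase signal is then imaged following reagent-mediated lysis.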
Rango complex inh: inhibitors of Rango-importin beta complex formation; Potency, µM (titrated, usually from 92.2 µM), for inactives: at the highest dose inhibition of complex formation; Q14974; 0.031% of 340,000 active; Rango CFP/YFP FRET sensor + importin beta, 45 min; active = rising FRET ratio curve, often small or poorly fitted; inconclusive = mostly compound fluorescence or quenching in the first reads; inactive = flat curves in all reads;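 also: potency is read from the fitted curve at half-maximal effect; 0% = DMSO wells and 100% = buffer wells lacking importin beta; nearly all actives have a fitted effect of over 15% in size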
Target sequence (Q14974 whole entry, looked up): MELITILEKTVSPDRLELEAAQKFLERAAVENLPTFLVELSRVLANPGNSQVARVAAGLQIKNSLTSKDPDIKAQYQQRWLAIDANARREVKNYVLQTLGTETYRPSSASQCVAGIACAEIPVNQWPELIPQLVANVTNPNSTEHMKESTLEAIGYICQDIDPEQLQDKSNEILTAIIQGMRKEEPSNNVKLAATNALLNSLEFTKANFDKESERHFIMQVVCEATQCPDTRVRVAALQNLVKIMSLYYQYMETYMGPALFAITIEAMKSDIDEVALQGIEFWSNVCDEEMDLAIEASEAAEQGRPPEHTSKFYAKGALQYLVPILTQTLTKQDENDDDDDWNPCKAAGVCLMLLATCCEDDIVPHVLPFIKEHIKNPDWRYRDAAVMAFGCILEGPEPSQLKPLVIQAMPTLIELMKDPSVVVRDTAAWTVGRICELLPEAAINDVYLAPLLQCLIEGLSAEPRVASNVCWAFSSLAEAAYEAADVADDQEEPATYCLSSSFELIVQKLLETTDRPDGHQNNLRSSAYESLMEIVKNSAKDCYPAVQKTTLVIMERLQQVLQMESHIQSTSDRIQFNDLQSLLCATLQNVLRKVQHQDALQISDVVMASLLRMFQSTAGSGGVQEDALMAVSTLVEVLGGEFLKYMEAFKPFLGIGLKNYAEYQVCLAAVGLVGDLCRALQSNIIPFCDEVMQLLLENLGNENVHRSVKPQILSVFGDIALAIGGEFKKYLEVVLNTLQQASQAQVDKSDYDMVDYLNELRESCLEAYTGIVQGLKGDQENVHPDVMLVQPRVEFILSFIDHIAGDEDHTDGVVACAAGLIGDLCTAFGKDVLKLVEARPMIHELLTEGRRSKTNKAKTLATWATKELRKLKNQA
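Inhibition scored from the CFP 486 nm/YFP 530 nm FRET ratio 45 min after adding 0.125 microM importin beta to 50 nM Rango biosensor preincubated 5 min with compound (room temperature, PBS with DTT, Tween-20, BSA). No-importin wells as positive control.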
Rango dissoc inh: inhibition of RanGTP-driven Rango-importin beta dissociation; 0.071% of 340,000 active; Biochemical FRET Rango-importin beta, RanGTP-induced dissociation; AID 540253; Potency, µM (titrated, usually from 46.1 µM), without a hit: at the top dose activity change, negative = inhibition; O95149+P62826; active means falling FRET ratio curve, often poorly fitted, with flat reads before Ran was added; inconclusive means other falling curves, or compound fluorescence or quenching; inactive means flat or rising ratio curve;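 also: potency is read from the fitted curve at half-maximal effect; % of control where 0% means no effect; nearly all actives have a fitted effect of over 45% in size; -100% = wells without RanGTP and RCC1; the record marks most hits as doubtful in a second field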
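Quantitative HTS using a FRET biosensor: 0.1 uM Rango, 0.25 uM importin beta, 0.6 uM Ran, 2 mM GTP, 0.2 uM RCC1 final, PBS with DTT, Tween-20 and BSA. Post-read taken 45 min after Ran addition.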
GLA inh pH 4.5: blocks human alpha-galactosidase A at pH 4.5 | purified enzyme, 4-MU-alpha-Gal fluorescence, pH 4.5 | activity change, negative = inhibition, % at 105 µM | 230,000 tested, under 10 active; inconclusive = small, poorly fitted or top-dose-only inhibition, or a rising curve; inactive = flat fitted curve, though single readings scatter; no compound was filed as active;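 also: 0% = full activity with enzyme and -100% = basal without enzyme; dose as in the result columns while the protocol names 77 µM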
* = called active by the depositor; ? = inconclusive; / = no result given. This is a subset; count on the stated rates, not on these rows.

SMILES	miR-21 FLuc	Rango complex inh	Rango dissoc inh	GLA inh pH 4.5
Cc1cccc(C)c1NC(=O)C(=O)c1cn(C)c2ccccc12	-17%	-1.5%	19%	-5
COc1ccc(NC(=O)c2cc([N+](=O)[O-])ccc2N2CCCCC2)cc1	19%	1.0%	-1%	/
COc1ccc(CNC(=O)c2c[nH]c3ccccc3c2=O)cc1	-5%	2.0%	-13%	/
O=c1cc(CN2CCc3ccccc32)c2ccc(O)cc2o1	4%	?	?	12
O=C(CSc1nc(O)cc(=O)n1-c1ccc(Cl)c(Cl)c1)Nc1ccc(Cl)cc1Cl	-6%	?	10%	/
Cc1cc([N+](=O)[O-])nn1Cn1nc([N+](=O)[O-])cc1C	0%	-0.9%	-1%	-6
CCc1c(C(=O)NCCc2ccc(OC)c(OC)c2)[nH]c(C)c1C(C)=O	-8%	0.7%	2%	-1
Cc1ccc(C(=O)NCCCNC(=O)c2ccco2)cc1C	-9%	5.2%	6%	/
CCN1C(=O)CC(N2CCN(c3ccc(C(=O)c4ccccc4)cc3)CC2)C1=O (centres undefined)	2%	-2.2%	-2%	5
CC(C)Cc1nnc(NC(=O)c2ccc3c(=O)n4c(nc3c2)CCC4)s1	-14%	0.2%	14%	/
Cc1cc(C(=O)OCC(=O)NC2CCCC(C)C2C)c(C)o1 (centres undefined)	/	0.3%	-11%	/
COC(=O)c1ccc(NC(=O)c2ccccc2-c2ccccc2C(=O)O)cc1	-6%	-0.8%	12%	-5
Cc1onc(-c2ccccc2Cl)c1C(=O)OCC(=O)Nc1cccc(S(=O)(=O)N(C)C)c1	13%	2.5%	-10%	-15
CCCN(CCC)C(=O)CP(=O)(c1ccccc1)c1ccccc1	2%	-1.1%	6%	7
CCOc1ccc(CN(C(=O)c2cc3ccccc3oc2=O)C2CCS(=O)(=O)C2)cc1 (centres undefined)	-48%	0.9%	-17%	0
O=S(=O)(c1ccc(F)cc1)N1CCN(CC(O)COCC2CCCO2)CC1 (centres undefined)	/	1.4%	21%	/
CC(C)(C)c1cc(NC(=O)c2ccc(OC3CCCC3)cc2)no1	-14%	-1.4%	1%	-1
CCOC(=O)C(Sc1ncn[nH]1)c1ccccc1 (centres undefined)	0%	-0.3%	-2%	12
CCC(C)/C(C)=N/NC(=O)CSc1nc2ccccc2[nH]1 (centres undefined)	-10%	4.8%	0%	16
CC1(C)Oc2ccccc2OC1(O)c1ccc2ccccc2n1 (centres undefined)	3%	-0.9%	-1%	-6
CCn1cc(/C=C/C(=O)NCc2c(C)nn(C)c2C)cn1	-1%	-0.3%	-7%	3
O=C(NC(=S)Nc1cccc2ncccc12)c1cccs1	-8%	-0.3%	22%	7
Cc1cccc(N2CCN(C(=O)C3CCC(CNS(=O)(=O)c4cccs4)CC3)CC2)c1C (centres undefined)	?	4.7%	-11%	/
CNC(=S)N/N=C/c1ccc(C(C)C)cc1	/	4.7%	0%	/
O=C(Cc1cccs1)Nc1nnc(C2CC2)s1	3%	-3.4%	-3%	1
Cc1ccc(-n2cc(-c3ccccc3)[nH]c2=O)cc1F	-55%	-3.7%	1%	-8
CC(OC(=O)c1ccc(F)c(S(=O)(=O)N2CCOCC2)c1)C(=O)NC1CCCC1 (centres undefined)	/	0.0%	14%	/
CC12CN3CC(C)(CN(C1)C3c1ccccc1Cl)C2O (centres undefined)	-1%	1.3%	6%	2
COc1ccc(-c2cn3cccnc3n2)cc1NC(=O)c1cccs1	-1%	-0.2%	1%	2
O=C(NCc1ccccc1CN1CCCC1)c1cccc(S(=O)(=O)N2CCCC2)c1	/	-0.6%	6%	/
Cc1onc(-c2ccccc2Cl)c1C(=O)N/N=C(\N)COc1ccc(Cl)cc1	21%	-1.6%	9%	-3
CCc1ccc2oc(C(=O)NCc3ccncc3)c(C)c2c1	-23%	1.4%	12%	-3
Cc1ccnc(Nc2nc3ccccc3s2)n1	-45%	-0.6%	-8%	3
CC(C)(C)S(=O)(=O)N1Cc2cc(CO)cc(CCO)c2[C@@H]1CCO	/	-0.3%	-2%	/
O=c1[nH]c(=O)n(Cc2ccccc2)c2c1CCC2	-5%	-2.7%	-9%	3
COc1ccc(-c2cc(C(=O)Nc3cc(C)on3)no2)cc1	-7%	3.6%	-6%	3
CC1CCCN(C(=O)c2ccc(NS(=O)(=O)c3ccc4[nH]c(=O)[nH]c4c3)cc2)C1 (centres undefined)	/	-1.0%	-1%	/
C=CCNC(=O)/C(C#N)=C/c1c(C)nn(-c2ccccc2)c1Cl	5%	3.5%	10%	-14
c1csc(C(c2nnnn2C2CCCC2)N2CCCC3(CCCCC3)C2)c1 (centres undefined)	5%	-2.3%	2%	-2
CCn1cc(C(=O)NCCC(=O)NCCCO)c(=O)c2cc3c(cc21)OCO3	-4%	-1.6%	45%	/

Limited to Rango complex inh and GLA inh pH 4.5, for some of the entries so far:
| smiles | Rango complex inh | GLA inh pH 4.5 |
| --- | --- | --- |
| c1csc(C(c2nnnn2C2CCCC2)N2CCCC3(CCCCC3)C2)c1 (centres undefined) | -2.3% | -2 |
| CCn1cc(C(=O)NCCC(=O)NCCCO)c(=O)c2cc3c(cc21)OCO3 | -1.6% | / |

(list continues)
SMILES	miR-21 FLuc	Rango complex inh	Rango dissoc inh	GLA inh pH 4.5
CCCNC(=O)C1CCN(c2cc(-c3ccccc3)nc3ncnn23)CC1	0%	-2.2%	-10%	10
CC(OC(=O)Cc1c[nH]c2ccccc12)C(=O)Nc1ccccc1F (centres undefined)	/	-1.6%	-4%	/
O=[N+]([O-])c1ccccc1C(O)Cc1ccccn1 (centres undefined)	/	-2.7%	-12%	/
O=C(NC(=S)Nc1ccccc1N1CCCC1)c1cccs1	-41%	-3.5%	-14%	-13
CC(=O)Nc1ccc(NC(=O)[C@@H](NC(=O)c2ccccc2F)C(C)C)cc1	-5%	0.9%	?	/
CN(C)CCCNc1oc(/C=C/c2ccccc2)nc1C#N	-45%	2.5%	1%	?
CC(OC(=O)C1CC(O)CN1S(=O)(=O)c1ccccc1[N+](=O)[O-])C(=O)N1CCCCC1 (centres undefined)	-2%	7.7%	-1%	1
CCOc1cc(/C=N/NC(=O)C(=O)NCC2CCCO2)ccc1OCC(=O)N1CCOCC1 (centres undefined)	2%	1.4%	3%	-4
CCOC(=O)C1=C(C)NC(=O)NC1c1ccc(-c2ccc(F)cc2)o1 (centres undefined)	-18%	?	-8%	-6
O=c1[nH][nH]c(C(F)(F)F)c1C=NCc1ccccc1Cl	-3%	-0.2%	7%	1

Complete entries, looked up by structure.
CC12CN3CC(C)(CN(C1)C3c1ccccc1Cl)C2O (centres undefined) reads miR-21 FLuc = -1%; Rango complex inh = 1.3%; Rango dissoc inh = 6%; GLA inh pH 4.5 = 2
CCn1cc(/C=C/C(=O)NCc2c(C)nn(C)c2C)cn1 reads miR-21 FLuc = -1%; Rango complex inh = -0.3%; Rango dissoc inh = -7%; GLA inh pH 4.5 = 3

(more compounds)
SMILES	miR-21 FLuc	Rango complex inh	Rango dissoc inh	GLA inh pH 4.5
CC(=O)N1c2ccc(S(=O)(=O)N3CCCC(C(=O)N4CCCC(C)C4)C3)cc2CC1C (centres undefined)	2%	1.4%	-11%	/
O=C(c1cccs1)[C@@H]1[C@@H]2C(=O)N(Cc3ccc4c(c3)OCO4)C(=O)[C@@H]2C2c3ccccc3C=CN21 (some centres undefined)	-4%	/	/	-11
CCOC(=O)C1CCN(C(=O)c2cc3cc(Cl)ccc3[nH]2)CC1	-39%	-0.9%	-7%	/
O=C(N/N=C/c1cccc(C(F)(F)F)c1)c1cc2c(s1)-c1ccccc1CC2	-2%	0.5%	-13%	1
CCC(C)C1(C2CCCC2)NC(=O)NC1=O (centres undefined)	/	-3.7%	-4%	/
COC(=O)[C@@H](NC(=O)NCc1ccc(F)cc1)C(C)C	-2%	-0.6%	6%	3
CCc1cc(=O)oc2c3c(cc(OCC(=O)NCCN4CCOCC4)c12)OC(C)(C)CC3	-14%	-2.0%	-7%	/
C=CCOC(=O)C1=C[C@@H](c2csc3ccccc23)C[C@@H](OCCCCO)O1	/	0.0%	-2%	/
Cc1cccc(-c2nc(CS(=O)CC(=O)N3CCN(C)CC3)c(C)o2)c1 (centres undefined)	-6%	0.0%	3%	-9
COCCN(C(=O)c1ccc(-c2ccc([N+](=O)[O-])cc2)o1)c1c(N)n(CC(C)C)c(=O)[nH]c1=O	/	-0.3%	-6%	/
CN1CCN(C(c2ccccc2)c2ccc(Cl)cc2)CC1 (centres undefined)	/	0.4%	-6%	/
FCCCOc1ccc(-c2nccc(-c3ccc(Br)cc3)n2)cc1	-11%	0.9%	-13%	-3
O=C(CSc1nnc(-c2cnccn2)n1Cc1ccco1)c1ccccc1	-8%	0.2%	-16%	2
COC(=O)c1c(NC(=O)COC(=O)c2ccc(Cl)nc2)sc(C)c1C	/	-2.4%	-26%	/
CC(C)c1ccc(C(O)P(=O)(OCc2ccccc2)c2ccc(N(C)C)cc2)cc1 (centres undefined)	3%	0.2%	10%	-9
CNc1c(NS(=O)(=O)c2ccc(F)cc2)c(=O)oc2ccccc12	0%	-0.6%	-19%	/
CCN(CC)S(=O)(=O)c1ccc(=O)[nH]c1	0%	4.1%	6%	-1
CCOC(=O)C(OC(=O)c1sc(=S)n(C)c1C)C(C)=O (centres undefined)	-1%	-0.9%	3%	-1
O=[N+]([O-])C1=C(Nc2cccc3ccccc23)CS(=O)(=O)C1	16%	8.4%	14%	-3
CN(C)c1cccc(N(C)C)c1CNC(=O)NC(=O)c1c(F)cccc1F	1%	-0.3%	-8%	/

As entered above.
CN1CCN(C(c2ccccc2)c2ccc(Cl)cc2)CC1 (centres undefined) @ Rango complex inh = 0.4%
CN(C)c1cccc(N(C)C)c1CNC(=O)NC(=O)c1c(F)cccc1F @ Rango complex inh = -0.3%
CCN(CC)S(=O)(=O)c1ccc(=O)[nH]c1 @ Rango dissoc inh = 6%

More records:
SMILES	miR-21 FLuc	Rango complex inh	Rango dissoc inh	GLA inh pH 4.5
CC(=O)c1cccc(NC(=O)C(OC(=O)c2cccs2)c2ccccc2)c1 (centres undefined)	-6%	6.4%	3%	-4
CN(CC(=O)Nc1c(Cl)cccc1Cl)C(=O)c1ccccc1SCC(=O)N1CCCC1	-2%	-0.6%	5%	/
COc1ccc(NC(=O)Nc2nnc(C(C)(C)C)s2)cc1	-40%	1.4%	1%	-4
COc1cc(C(=O)NCc2nnc(SCC(=O)N3CCOCC3)o2)cc(OC)c1OC	1%	-1.9%	-5%	-14
CCN1CCn2c1nc(N1CCOCC1)nc2=O	-6%	-0.3%	-9%	3
C=C(C)c1cccc(C(C)(C)NC(=O)Nc2ccc(Cl)cn2)c1	-5%	-0.9%	-23%	-8
O=C(CC1NCCNC1=O)Nc1ccc(Oc2ccccc2)cc1 (centres undefined)	-21%	2.4%	1%	9
Cc1cccnc1NC(=O)CCn1c(=O)oc2ccccc21	-2%	0.8%	-18%	/
COCCN(C(=O)COC(=O)/C=C/c1ccccc1Cl)c1c(N)n(Cc2ccccc2)c(=O)[nH]c1=O	/	1.4%	14%	/
COc1cccc(S(=O)(=O)NCc2ccc(C(=O)NCC3CCCO3)cc2)c1 (centres undefined)	-2%	0.0%	23%	3
C[C@H](CO)N1C[C@H](C)[C@@H](CN(C)C(=O)Nc2ccc(C(F)(F)F)cc2)Oc2c(NC(=O)NC3CCCCC3)cccc2C1=O	/	1.6%	1%	/
COc1ccc(OC)c(NC(=O)CSCc2cnn(-c3ccccc3)c2-n2cccc2)c1	15%	4.3%	0%	-23
N#Cc1c(/N=C/c2ccc(-c3ccccc3C(=O)O)o2)sc2c1CCCC2	-45%	0.6%	6%	/
COc1cccc(CN(C)C(=O)/C=C/c2ccc(S(=O)(=O)N3CCCCCC3)cc2)c1	8%	1.1%	5%	/
CCOC(=O)c1c(S(=O)(=O)N(C)Cc2ccccc2)c(C)n(C)c1C	-4%	-0.9%	-4%	/
Cc1onc(-c2ccccc2Cl)c1C(=O)N1CCc2ccccc2C1	3%	-1.9%	-6%	-17
Cc1cccc(C)c1NC(=O)COC(=O)c1cc[n+]([O-])cc1	/	-0.8%	-6%	/
Cc1ccc(S(=O)(=O)n2nc(C)c(Br)c2C)c(C)c1C	0%	-4.0%	-4%	5
